# Compound activity: PubChem BioAssay, several laboratories
# Bead autofluor – flagged as autofluorescent in microsphere protease counterscreen; AID 624483; compound autofluorescence counterscreen, microsphere flow cytometry; active compounds read high; fluorescence intensity (no concentration beside the values); 3.1% of 360,000 active;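 active = at least 3 SD above the mean of all compounds, about 16000 in these data; inconclusive = too few beads counted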;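 note: 100 nL of 1 mM stock went into each well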
# RN4220 kill – S. aureus RN4220 growth inhibition; OD600, 16 h; inhibition, % (no concentration beside the values); 0.33% of 330,000 active;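 active = z-score of -3 or lower and OD600 up to 0.18 on both plates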;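 note: plate controls were untreated cells for no effect and reference antibiotic for full effect; stock transfer was 100 nL into about 80 µL; one replicate is shown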
# BJeLR lethal – kills HRASV12-expressing BJeLR cells; 0.17% of 300,000 active; AID 1554; inhibition, % (test concentration not listed); BJeLR (HRASV12) viability, CellTiter-Glo ATP luminescence, 48 h; reference of the scale not given here;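 active = replicate mean above 50%; inconclusive = above 50% but judged a plate artefact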;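 note: 50 nL library stock added to about 25 µL; numbers are from one replicate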
# Mtb hypoxia rep – reduces hypoxia-regulated biosensor signal in M. tuberculosis | fluorescence inhibition, % (concentration not given with the values) | 0.1% of 300,000 active | M. tuberculosis hypoxia-regulated fluorescent reporter, fluorescence;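 active = 35 to 45% if threefold the growth effect, above 45% if 1.5-fold the growth effect; inactive = the rest, general growth blockers included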;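 note: wells of about 50 µL received 100 nL stock; 0% = vehicle wells and 100% = reference inhibitor wells; whole bacteria with a GFP reporter of the hypoxia response; strong numbers were not always called active; many hits fall short of the cut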
# PrP UTR inh – suppresses PrP 5' UTR mRNA reporter expression; AID 488862; 0.35% of 340,000 active; inhibition, % (no concentration beside the values); cell-based PrP 5' UTR mRNA reporter, plate reader;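 active = every replicate at 50% or more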;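 note: 0 = median of the neutral control wells; tested in H4 reporter cells; numbers are from one replicate; inactives centre near -14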
# ugtP null kill – kills S. aureus RN4220 lacking UgtP; 0.54% of 330,000 active; S. aureus RN4220 ugtP deletion, OD600 growth, 16 h; some inactives read as strong as hits; growth inhibition, % (no concentration beside the values);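 active = z-score under -3 and OD600 up to 0.15 on both plates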;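 note: plate controls were untreated wells for no effect and antibiotic for full effect; wells of about 80 µL received 100 nL stock; the first replicate is given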
# Mtb hypoxia rep growth – further read-out of Mtb hypoxia rep, marked with its call; growth inhibition, %; measured here: M. tuberculosis growth (absorbance);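 0% = vehicle and 100% = reference antibiotic; read after six days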
# * = called active by the depositor; ? = inconclusive; / = not tested or not shown; & = joins results of further samples.
1. CC1(C)Cc2nc3oc4c(NCCCN5CCOCC5)ncnc4c3cc2CO1
2. CC(=O)OCC1OC(CC=NOC(C)c2cn(C(CO)Cc3ccccc3)nn2)C=CC1OC(C)=O (stereo unspecified)
3. CCOC(=O)C(Cc1ccccc1)C(=O)NCc1ccccc1 (stereo unspecified)
4. COc1ccc(CCNC(=O)Cn2c(=O)[nH]c3ccsc3c2=O)cc1OC
5. CCOc1ccc(-c2nc(CSCC(=O)N3CCN(C(=O)c4ccco4)CC3)c(C)o2)cc1
6. COCCN(Cc1nc2ccccc2c(=O)[nH]1)C(=O)COc1cccc(C(C)=O)c1
7. CN(Cc1ccccc1)C(=O)c1ccc(NC(=O)Cc2cccc([N+](=O)[O-])c2)cc1
8. CC(=NNC(=O)Cn1c(C)nc2ccccc21)c1cccs1
assay / entry	1	2	3	4	5	6	7	8
Bead autofluor	3582	/	3477	3569	5302	/	4180	/
RN4220 kill	1.6	9.3	-0.8	1.8	1.3	2.3	-2.9	5.9
BJeLR lethal	0	/	-9	0	2	/	/	/
Mtb hypoxia rep	13	4	5	8	/	1	5	5
Mtb hypoxia rep growth	9	-6	-2	15	/	1	12	16
PrP UTR inh	-10	/	11	-23	-17	-3	-23	/
ugtP null kill	4	13	1	3	3	3	-15	-1

9. COc1cccc(C=Nc2ccccc2C#N)c1O
10. CC(=O)Nc1ccc(S(=O)(=O)N2CCN=C2c2ccccc2)cc1
11. Cc1cc(Nc2ccc(Br)cc2)n2nc(C)nc2n1
12. N#Cc1ccccc1S(=O)(=O)N1CCN(C(=O)[C@@H]2CCCN2C(=O)c2cccs2)CC1
13. Cc1cccnc1NC(=O)C(C)Oc1ccccc1 (stereo unspecified)
14. O=C(O)COc1ccccc1/C=N/NC(=O)Cc1ccccc1
15. CCCNc1cc(=O)n(C)c(=O)n1C
16. COc1ccc(C)cc1NC(=O)CNC(=O)c1sc2ccccc2c1Cl
assay / entry	9	10	11	12	13	14	15	16
Bead autofluor	2484	5099	6121	8299	2431	4396	2357	4915
RN4220 kill	5.6	4.5	-1.1	6.4	3.8	/	3.1	1.6
BJeLR lethal	-12	9	-2	/	1	-3	-4	6
Mtb hypoxia rep	1	13	/	8	0	/	2	-1
Mtb hypoxia rep growth	0	8	/	-2	3	/	6	-6
PrP UTR inh	-8	-15	-2	-9	-30	-42	-6	-30
ugtP null kill	2	5	4	5	0	/	-2	-1

17. Cc1cc(C)nc(SCc2ccccc2C#N)n1
18. COc1ccc(NC(=O)c2ccccc2)cc1NS(=O)(=O)c1ccc(F)cc1
19. CC1=CC(C)(C)NC(=S)N1c1ccc(C)c(C)c1
20. CN(C)S(=O)(=O)c1cccc(NC(=O)Cc2ccc(Cl)cc2)c1
21. COc1ccc(C(=O)NC2CCCc3ccccc32)cc1[N+](=O)[O-] (stereo unspecified)
22. COc1ccc(CNC(=O)CCS(=O)(=O)c2ccc3c(c2)NC(=O)CS3)cc1
23. CC(C)c1cc(=O)n2[nH]c(SCc3ccccc3)nc2n1
24. CCOc1ccc2ccccc2c1C(=O)N[C@@H]1C(=O)N2[C@@H]1SC(C)(C)[C@@H]2C(=O)O
assay / entry	17	18	19	20	21	22	23	24
Bead autofluor	2886	2285	3196	2395	4139	5658	3689	6555&5534
RN4220 kill	8.0	-3.5	32	6.5	0.6	-2.4	1.8	/
BJeLR lethal	-4	-11	4	2	18	-4	4	-2
Mtb hypoxia rep	9	4	3	11	-4	6	0	/
Mtb hypoxia rep growth	5	-1	5	4	-16	3	1	/
PrP UTR inh	-19	-26	-8	-17	-15	-8	0	-25&-19
ugtP null kill	-3	9	-73	10	8	7	9	/

# Complete entries from above:
# Cc1cc(Nc2ccc(Br)cc2)n2nc(C)nc2n1 is listed with Bead autofluor: 6121; RN4220 kill: -1.1; BJeLR lethal: -2; Mtb hypoxia rep: /; Mtb hypoxia rep growth: /; PrP UTR inh: -2; ugtP null kill: 4
# CC(=O)OCC1OC(CC=NOC(C)c2cn(C(CO)Cc3ccccc3)nn2)C=CC1OC(C)=O (stereo unspecified) is listed with Bead autofluor: /; RN4220 kill: 9.3; BJeLR lethal: /; Mtb hypoxia rep: 4; Mtb hypoxia rep growth: -6; PrP UTR inh: /; ugtP null kill: 13

# Later entries:
25. O=C1c2ccc(-c3ccc(Cl)c(C(F)(F)F)c3)cc2S(=O)(=O)c2cccc(C(=O)N3CCN(c4ncc(Br)cn4)CC3)c21
26. CC(C)(C)c1nnc2sc(SCC(=O)N3CCCCC3)nn2c1=O
27. Clc1cc2nc3ccccn3c2cc1Cl
28. CCC(C)NC(=O)c1cnn2c1NC(c1cccs1)CC2C(F)(F)F (stereo unspecified)
29. Cc1ccc(S(=O)(=O)c2cc3c(=O)n4ccccc4nc3n(C3CCCCC3)c2=N)cc1
30. CC(=O)Oc1cccc(/C=C2\C=C(c3ccc(C)cc3)OC2=O)c1
31. CC1(C)CC(=O)c2c(O)cc(OCC(=O)Nc3ccc(S(N)(=O)=O)cc3)cc2O1
32. CSc1c(CN2CCN(C)CC2)c2ccccc2n1C
assay / entry	25	26	27	28	29	30	31	32
Bead autofluor	3728	3741	2191	2850	5537	4495	5723	4359
RN4220 kill	-8.7	4.2	0.1	-9.0	-1.3	-8.7	2.7	3.6
BJeLR lethal	/	/	-4	0	0	7	-3	4
Mtb hypoxia rep	-7	5	/	11	1	7	/	18
Mtb hypoxia rep growth	1	7	/	6	-3	11	/	3
PrP UTR inh	-8	-15	-19	-27	1	2	-1	/
ugtP null kill	-3	5	9	-3	-11	-3	3	7

33. CCCn1nnnc1SCC(=O)N1C(C)CCCC1C (stereo unspecified)
34. CN1CCC(N(C)CC(=O)Nc2ccc3c(c2)OC(F)(F)O3)CC1
35. O=C1COc2ccc(C(=O)COC(=O)/C=C/c3ccco3)cc2N1
36. COc1ccccc1C(=O)c1nc2ccccc2n1C
37. CCOC(=O)c1csc(-c2ccc3c(c2)CCO3)n1
38. COc1ccc(/C=C2\SC(=O)N(CCNC(=O)C3CCN(S(=O)(=O)c4cccs4)CC3)C2=O)cc1
39. O=C(COC(=O)/C=C/C(=O)N1CCN(c2ccccc2)CC1)NC(c1ccccc1)c1ccccc1
40. COc1ccc(NC(=O)C2C3C=CC4(O3)C2C(=O)N(CCN2CCCCC2)C4C(=O)NC2CCCC(C)C2C)cc1 (stereo unspecified)
assay / entry	33	34	35	36	37	38	39	40
Bead autofluor	3955	4318	2946	2992	6225	8345	4646	5747
RN4220 kill	0.5	2.5	3.5	2.9	4.6	2.5	3.9	-4.4
BJeLR lethal	-5	9	/	6	-3	-1	-3	9
Mtb hypoxia rep	8	20	8	1	8	6	-2	-5
Mtb hypoxia rep growth	-4	3	2	-2	13	2	-5	-4
PrP UTR inh	-25	-22	-73	-22	-68	-71	-11	-28
ugtP null kill	-1	-1	1	10	4	-9	-7	-5

# Ordered by molar mass (highest first): some entries from above
38. COc1ccc(/C=C2\SC(=O)N(CCNC(=O)C3CCN(S(=O)(=O)c4cccs4)CC3)C2=O)cc1
34. CN1CCC(N(C)CC(=O)Nc2ccc3c(c2)OC(F)(F)O3)CC1
36. COc1ccccc1C(=O)c1nc2ccccc2n1C
assay / entry	38	34	36
Bead autofluor	8345	4318	2992
RN4220 kill	2.5	2.5	2.9
BJeLR lethal	-1	9	6
Mtb hypoxia rep	6	20	1
Mtb hypoxia rep growth	2	3	-2
PrP UTR inh	-71	-22	-22
ugtP null kill	-9	-1	10

# More entries follow:
41. CC(C)(C)[C@H]1C=C(C(=O)N2CCN(Cc3ccc4c(c3)OCO4)CC2)O[C@@H](OCc2ccc(CO)cc2)C1
42. O=C(c1cnn2c(C(F)F)cc(-c3ccccc3)nc12)N1CCSCC1
43. O=C(CN1C(=O)NC2(CCCc3ccccc32)C1=O)NCC(F)(F)F (stereo unspecified)
44. CC(C)CC(=O)Nc1nnc(CSCc2ccc(F)cc2)s1
45. COCC(C)n1c(C)cc(C(=O)COC(=O)c2n[nH]c3ccccc23)c1C (stereo unspecified)
46. O=C(NCc1ccco1)c1ccc(CN2CCOCC2)cc1
47. Cc1ccccc1Nc1nnc(SCC2CCCCO2)s1 (stereo unspecified)
48. O=c1ccc(Br)c[nH]1
assay / entry	41	42	43	44	45	46	47	48
Bead autofluor	2912	?	3199	3825	2887	6367	2588	4125
RN4220 kill	/	5.6	-0.2	1.5	-1.1	2.9	5.2	4.7
BJeLR lethal	13	8	6	-2	3	-12	-5	2
Mtb hypoxia rep	/	-5	0	3	/	11	1	-1
Mtb hypoxia rep growth	/	1	2	8	/	7	9	-1
PrP UTR inh	-16	-16	-9	-6	3	-25	-100	3
ugtP null kill	/	5	5	5	-2	1	2	-3

49. COC(=O)c1ccc(COC(=O)CCS(=O)(=O)c2ccc(C)cc2)cc1
50. O=C(Nc1ccc(Nc2ccccc2)cc1)Nc1ccccc1Cl
51. Cc1cc(-c2nnc(CCC(=O)NCc3cc(F)cc(C(F)(F)F)c3)o2)no1
52. CC(=O)OCC1OC(OC(C)=O)C(NC(=O)Cc2ccccc2)C(OC(C)=O)C1OC(C)=O (stereo unspecified)
53. C=CCc1ccccc1OCC(O)CNC1CCCC1 (stereo unspecified)
54. Cc1cc(/C=C2\C(=O)NC(=O)N(c3ccccc3)C2=O)c(C)n1-c1ccc(C(=O)O)c(Cl)c1
55. O=C(CN1C(=O)C2C3c4ccccc4C(c4ccccc43)C2C1=O)Nc1cccc(C(=O)O)c1 (stereo unspecified)
56. Cc1ccc(C(=O)N/N=C/c2ccc([N+](=O)[O-])s2)cc1
assay / entry	49	50	51	52	53	54	55	56
Bead autofluor	2351	3387	3938	4568	6101	3962	2037	2239
RN4220 kill	2.8	-13	-4.5	5.9	1.3	3.0	3.4	/
BJeLR lethal	-2	16	-4	-2	3	2	11	2
Mtb hypoxia rep	6	-1	-21	7	-14	10	1	/
Mtb hypoxia rep growth	5	7	-9	7	0	2	-1	/
PrP UTR inh	-8	-51	10	-16	0	-16	-15	75*
ugtP null kill	11	2	-8	7	1	1	8	/

57. Nc1ccc(SC(F)(F)F)cc1
58. COc1cc(OC)cc(C(=O)OCC(=O)Nc2sccc2C(N)=O)c1
59. COc1ccccc1OCC(=O)NNc1c2ccccc2nc2ccccc12
60. c1ccc(CSc2nnc(-c3c[nH]c4ccccc34)o2)cc1
61. O=C(COc1ccc(Cl)cc1)Nc1nnc(-c2ccco2)o1
62. Cc1ccc(-n2c(C)cc(/C=C(\C#N)C(=O)NCC3CCCO3)c2C)cc1 (stereo unspecified)
63. CCN(C(=O)c1cc2cc(OC)ccc2oc1=O)c1cccc(C)c1
64. CCOC(=O)c1c(-c2ccccc2)oc2ccc(OCC(=O)NNC(=O)CCCC(=O)O)cc12
assay / entry	57	58	59	60	61	62	63	64
Bead autofluor	4325	4475	5920	4806	4367	8291	9887	3520
RN4220 kill	-1.4	7.6	-1.4	3.2	4.0	0.1	1.7	1.8
BJeLR lethal	-2	-3	-12	3	4	1	-1	0
Mtb hypoxia rep	4	3	13	/	8	13	5	10
Mtb hypoxia rep growth	-2	0	9	/	6	11	10	-4
PrP UTR inh	-10	-28	-14	-57	-14	-69	-23	-19
ugtP null kill	1	0	-2	-6	3	-7	7	-1

65. CCc1nc2ccc(C)cc2c(C(=O)Oc2cccc3cccnc23)c1C
66. O=C1C2C3C=CC(c4ccccc4)(C2C(=O)N1c1cccc(Cl)c1)C1C(=O)N(c2cccc(Cl)c2)C(=O)C31 (stereo unspecified)
67. Cc1ccc(S(=O)(=O)/N=C(\CN2CCOCC2)N2CCCC2)cc1
68. O=[N+]([O-])c1ccc(-c2ccc(C=Nc3cccc4ccccc34)o2)cc1
69. Nc1nc(OCc2ccccc2)c2[nH]cnc2n1
70. Cc1ccc(C(NC(=O)N2CCOCC2)=C(Cl)Cl)cc1F
71. CC1(C)CC(=O)c2c(O)cc(OCc3ccc(Br)cc3)cc2O1
72. CN(CCOc1ccc(-c2ccn(S(=O)(=O)c3ccc(Cl)cc3)n2)cc1)c1ccccn1
73. CN1C(=O)CC(N2CCN(c3ccccc3)CC2)C1=O (stereo unspecified)
74. CCc1nn(CC(=O)NCCCN(C)Cc2ccccc2)c(=O)c2cc3sc(C)cc3n12
assay / entry	65	66	67	68	69	70	71	72	73	74
Bead autofluor	?	2033	12803	9949	5262	8322	22502*	4247	3910	5542
RN4220 kill	-1.6	10	/	2.5	5.2	-3.2	2.0	5.6	6.8	-0.6
BJeLR lethal	-2	5	-3	1	-8	12	-2	7	2	-2
Mtb hypoxia rep	17	12	/	5	-5	4	-12	12	6	-1
Mtb hypoxia rep growth	4	9	/	1	-4	13	7	8	3	9
PrP UTR inh	-16	-17	0	-15	3	-8	-89	-27	-23	10
ugtP null kill	-7	-16	/	-1	-1	-17	1	3	5	4
